Source: PubChem (several laboratories)
ugtP null kill = growth inhibition of S. aureus ugtP deletion strain. S. aureus RN4220 ugtP deletion, OD600 growth, 16 h; some inactives read as strong as hits. growth inhibition, % (no concentration beside the values). 330,000 compounds, 0.54% hits;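 active means z-score under -3 and OD600 up to 0.15 on both plates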;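 further: plate controls were untreated wells for no effect and antibiotic for full effect; wells of about 80 µL received 100 nL stock; the first replicate is given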
RN4220 kill = S. aureus RN4220 growth inhibition. OD600, 16 h. inhibition, % (concentration not given with the values). 330,000 compounds, 0.33% hits;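 active means z-score of -3 or lower and OD600 up to 0.18 on both plates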;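 further: plate controls were untreated cells for no effect and reference antibiotic for full effect; stock transfer was 100 nL into about 80 µL; one replicate is shown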
BJeLR lethal = kills HRASV12-expressing BJeLR cells; BJeLR (HRASV12) viability, CellTiter-Glo ATP luminescence, 48 h; reference of the scale not given here; 300,000 compounds, 0.17% hits; inhibition, % (no concentration beside the values); AID 1554;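 active means replicate mean above 50%; inconclusive means above 50% but judged a plate artefact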;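 further: 50 nL library stock added to about 25 µL; numbers are from one replicate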
PrP 5UTR inh = suppresses PrP 5' UTR mRNA reporter expression; cell-based PrP 5' UTR mRNA reporter, plate reader; inhibition, % (no concentration beside the values); 340,000 compounds, 0.35% hits; AID 488862;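 active means every replicate at 50% or more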;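 further: 0 = median of the neutral control wells; tested in H4 reporter cells; numbers are from one replicate; inactives centre near -14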
Bead autofluor = flagged as autofluorescent in microsphere protease counterscreen | compound autofluorescence counterscreen, microsphere flow cytometry; active compounds read high | fluorescence intensity (concentration not given with the values) | AID 624483 | 360,000 compounds, 3.1% hits;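 active means at least 3 SD above the mean of all compounds, about 16000 in these data; inconclusive means too few beads counted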;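 further: 100 nL of 1 mM stock went into each well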
Mtb hypoxia inh = reduces hypoxia-regulated biosensor signal in M. tuberculosis | 300,000 compounds, 0.1% hits | fluorescence inhibition, % (test concentration not listed) | M. tuberculosis hypoxia-regulated fluorescent reporter, fluorescence | AID 1159583;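 active means 35 to 45% if threefold the growth effect, above 45% if 1.5-fold the growth effect; inactive means the rest, general growth blockers included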;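 further: wells of about 50 µL received 100 nL stock; 0% = vehicle wells and 100% = reference inhibitor wells; whole bacteria with a GFP reporter of the hypoxia response; strong numbers were not always called active; many hits fall short of the cut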
Mtb hypoxia inh growth = recorded beside Mtb hypoxia inh, whose call it bears; growth inhibition, %; measured here: M. tuberculosis growth (absorbance);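 0% = vehicle and 100% = reference antibiotic; read after six days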
Starred values were filed as active, the others as inactive; ? = inconclusive; · = not tested or not shown. Outcome played no part in choosing rows (roughly 4% active in at least one column).

SMILES	ugtP null kill	RN4220 kill	BJeLR lethal	PrP 5UTR inh	Bead autofluor	Mtb hypoxia inh	Mtb hypoxia inh growth
CCOc1ccc(N(C(C)C(=O)N2CCCC2)S(C)(=O)=O)cc1 (centres undefined)	12	1.8	4	-18	3520	7	4
O=C(NCc1cccnc1)C(=O)N/N=C/c1ccccc1[N+](=O)[O-]	·	·	-2	-13	4105	·	·
CCN(CC1CCCO1)C(=O)C1CCN(C2CCN(Cc3ccccc3C)CC2)CC1 (centres undefined)	2	-2.0	0	-4	7798	0	7
CCOc1oc(-c2ccc(OC)cc2)nc1C(F)(F)F	1	12	8	-6	16401*	5	10
O=C(NNc1nc2ccccc2nc1C(F)(F)F)c1ccccc1	2	-0.8	-5	-14	2821	·	·
O=C(Nc1ccc2nc(-c3ccccc3)[nH]c2c1)c1ccco1	-6	-1.2	6	-61	3818	-1	-8
CN(C)c1ccnc(-n2cccc2/C=N/OCc2ccccc2)c1C#N	·	·	11	-17	5322	·	·
COc1cc(C(=O)NC(=S)N2CCCCCC2)cc(OC)c1OC	-2	-0.9	-2	-19	4471	4	9
O=C1NC(=O)C2C1C(c1cccs1)NN2Cc1ccccc1 (centres undefined)	3	2.4	-7	-24	4367	3	0
C=CCNC(=O)C1CCN(c2cnccn2)CC1	-11	1.1	0	1	4593	-8	2
CCCCSc1nc2c(cnn2-c2ccc(F)cc2)c(=O)[nH]1	6	2.3	3	-2	6112	4	7
COc1ccc(/C=C/C(=O)NCC(=O)NN=Cc2cc(Br)ccc2OC)cc1	-16	2.0	·	·	·	-2	4
COc1cc(-c2nnc(-c3cccnc3)o2)cc(OC)c1OC	-5	6.3	4	-16	7290	-3	6
CCOC(=O)c1cn(Cc2ccc(Cl)cc2Cl)c2cc(C)nn2c1=O	3	6.5	-2	-15	4515	1	4
Cc1ccc[n+](CC(=O)c2cc3ccccc3oc2=O)c1	-6	10	1	-7	7820	12	7
O=C(CNc1ccc(Br)cc1)Nc1ccc(S(=O)(=O)N2CCCC2)cc1	0	5.0	·	-17	4081	2	2
COc1ccc(NC(=O)CCS(=O)(=O)c2ccccc2)c(OC)c1	4	2.3	-4	-29	11081	0	-4
O=C(CCC(=O)Nc1cc(C(F)(F)F)ccc1Cl)NN=Cc1cc([N+](=O)[O-])ccc1O	51	67	·	·	·	8	-4
COc1ccc(NC(=O)CSc2nccn2Cc2ccco2)cc1OC	5	3.0	5	-18	5833	-1	-2
COCCn1cc(C(=S)N2CCCCC2)c2ccccc21	5	6.8	0	-17	4380	-2	1
CCOC(=O)C1CCN(C(=O)Cc2ccc(-c3ccccc3)cc2)CC1	2	7.5	-6	-10	4126	-2	-1
CC(C)NC(=O)COC(=O)c1cc(F)c(F)cc1Cl	6	8.9	-18	-22	3174	·	·
CC(=O)OCC(=O)Nc1ccc(C(C)=O)cc1	15	0.3	8	1	3724	·	·
O=C(Cn1ccc([N+](=O)[O-])n1)NCc1ccco1	3	1.1	8	-16	9904	17	4
COc1ccc(C2CC(O)(c3ccccc3)Oc3c(C)ccc(C)c32)cc1 (centres undefined)	·	·	4	-24	3023	·	·

The closing 2 compounds of the section above open the next one:
SMILES	ugtP null kill	RN4220 kill	BJeLR lethal	PrP 5UTR inh	Bead autofluor	Mtb hypoxia inh	Mtb hypoxia inh growth
O=C(Cn1ccc([N+](=O)[O-])n1)NCc1ccco1	3	1.1	8	-16	9904	17	4
COc1ccc(C2CC(O)(c3ccccc3)Oc3c(C)ccc(C)c32)cc1 (centres undefined)	·	·	4	-24	3023	·	·
CCOC(=O)Cc1nnc2c(Nc3ccc(C)cc3)nc3nonc3n12	-6	4.7	0	-11	2845	-7	-2
CCC(C)NC(=S)NNC(=O)c1ccc(C(C)(C)C)cc1 (centres undefined)	-10	4.3	10	-18	3379	7	8
Oc1ccc(C=NNc2ccc(Cl)nn2)cc1O	-1	6.1	·	·	·	20	-6
O=C(COc1ccc(Cl)cc1)N1N=C(c2cccs2)CC1c1ccco1 (centres undefined)	3	4.7	·	-7	5077	-12	10
CCOC(=O)C1CCCN(C/C(O)=C(\C#N)c2nc(-c3ccccc3)cs2)C1 (centres undefined)	·	·	4	-27	7267	·	·
CN1CCC(C2(O)c3ccccc3CSc3sccc32)CC1 (centres undefined)	1	4.5	·	-10	3780	·	·
O=C(Cn1c(CN2CCCCC2)nc2ccccc2c1=O)NCc1ccco1	1	4.1	-2	-22	10484	3	0
COc1cccc(-c2nn(-c3ccccc3)cc2/C=C(/NC(=O)c2ccccc2)C(=O)O)c1	-1	2.4	-8	-6	4706	6	4
CC(C)(CNC(=O)c1sc2cc(F)ccc2c1Cl)N1CCOCC1	-2	6.5	10	-47	2771	14	21
Nc1c(C(=O)c2ccc(Br)cc2)oc2ccccc12	-6	0.3	-4	-44	2494	2	10
COc1ccc(C=C(C#N)C(=O)Nc2ccc(C)cc2C)cc1C(=O)O	-1	1.8	·	·	·	-4	12
COc1ccc(S(=O)(=O)NCC(=O)N(Cc2ccco2)C(C(=O)NC(C)(C)C)C(C)C)cc1 (centres undefined)	5	2.1	-11	1	3755	-7	-9
O=C(CSc1nc2ccccc2c(=O)n1CC1CCCO1)NCc1ccc2c(c1)OCO2 (centres undefined)	5	2.8	22	-6	3503	9	8
O=C(NCCCn1ccnc1)/C(=C\c1cccs1)NC(=O)c1ccccc1	2	2.5	-6	-18	10960	9	0
CC(C)CN(C(=O)CSc1nncs1)c1c(N)n(CC(C)C)c(=O)[nH]c1=O	0	5.5	-8	-27	?	3	7
CCOc1ccc(CNC2CCCc3ccccc32)cc1 (centres undefined)	3	-1.5	2	-3	3274	9	6
CCN1C(=O)[C@H]2[C@@H](c3ccc(-c4ccccc4)c(OC)c3)N[C@@](Cc3ccccc3)(C(=O)OC)[C@H]2C1=O	·	·	1	-2	7674	·	·
CCOc1cc(NS(C)(=O)=O)c(OCC)cc1NC(=O)c1cccs1	-3	0.8	-13	-20	9009	0	1
O=C(Cc1ccccc1)Nc1ccccc1CO	2	3.9	·	-4	3455	·	·
C=CCNC(=O)CSc1nc2ccccc2c(=O)n1CCc1ccc(OC)c(OC)c1	-11	2.2	5	-16	4065	-6	2
N/C(=N\OC(=O)CCC1CCCCC1)c1ccccn1	0	7.2	-14	-25	16251*	6	9
COc1ccc(CCNC(=O)C2CCN(Cc3nc(-c4ccccc4C)oc3C)CC2)cc1OC	-2	2.3	17	-7	22311*	1	11
CCOC(=O)c1cnc2c(-c3ccc(F)cc3)cnn2c1C(F)(F)F	3	18	·	-13	3446	13	13
CCC(c1nnc(SCc2nc3ccccc3s2)n1Cc1ccccc1)N(C)C (centres undefined)	-5	2.0	-3	-32	4796	·	·
CC(=O)c1ccc(N2CCCCC2)c(F)c1	1	13	2	-12	4489	15	5

In the list so far, three contain bromine.
SMILES	ugtP null kill	RN4220 kill	BJeLR lethal	PrP 5UTR inh	Bead autofluor	Mtb hypoxia inh	Mtb hypoxia inh growth
COc1ccc(/C=C/C(=O)NCC(=O)NN=Cc2cc(Br)ccc2OC)cc1	-16	2.0	·	·	·	-2	4
O=C(CNc1ccc(Br)cc1)Nc1ccc(S(=O)(=O)N2CCCC2)cc1	0	5.0	·	-17	4081	2	2
Nc1c(C(=O)c2ccc(Br)cc2)oc2ccccc12	-6	0.3	-4	-44	2494	2	10

The main list resumes; the 5 compounds before the break are reprinted first.
SMILES	ugtP null kill	RN4220 kill	BJeLR lethal	PrP 5UTR inh	Bead autofluor	Mtb hypoxia inh	Mtb hypoxia inh growth
N/C(=N\OC(=O)CCC1CCCCC1)c1ccccn1	0	7.2	-14	-25	16251*	6	9
COc1ccc(CCNC(=O)C2CCN(Cc3nc(-c4ccccc4C)oc3C)CC2)cc1OC	-2	2.3	17	-7	22311*	1	11
CCOC(=O)c1cnc2c(-c3ccc(F)cc3)cnn2c1C(F)(F)F	3	18	·	-13	3446	13	13
CCC(c1nnc(SCc2nc3ccccc3s2)n1Cc1ccccc1)N(C)C (centres undefined)	-5	2.0	-3	-32	4796	·	·
CC(=O)c1ccc(N2CCCCC2)c(F)c1	1	13	2	-12	4489	15	5
O=C(Nc1ccc(S(=O)(=O)N2CCOCC2)cc1)c1ccc(Cl)cc1Cl	2	-0.6	-7	-9	3072	6	-4
CN(C)S(=O)(=O)c1cccc(NC(=O)c2ccc(OC(F)(F)F)cc2)c1	-22	-0.9	-4	-26	10157	1	3
CCNC(=O)c1cc(Cl)ccc1OC	-4	2.4	5	-6	2167	16	2
CCC(CC)C(=O)Nc1cccc(C(=O)NC(C)(C)C)c1	3	2.5	12	-10	4569	2	0
CCN(CC)S(=O)(=O)c1ccc(Cl)c(NC(=O)c2cc(Cl)ccc2Cl)c1	1	1.6	2	-15	2329	1	-2
CCOc1ccc(NC(=O)CNC(=O)Cc2ccccc2)cc1	1	-7.2	-14	-4	2968	6	2
Cc1[nH]c2ccccc2c1C(=O)COC(=O)c1cccc(S(=O)(=O)N2CCCCC2)c1	-17	-3.7	-5	-10	9794	11	11
Cc1nn(-c2ccccc2)c(N2CCCC2)c1C=NNC(=S)Nc1ccccc1F	24	6.4	·	·	·	3	1
O=c1c2ccccc2nnn1Cc1ccccc1Cl	6	14	-1	-21	3078	-8	3
O/N=C/c1ccc2ccccc2c1	·	·	-5	-7	4585	·	·
CC(O)C1O[C@]2(C)CCCC1O2 (some centres undefined)	-7	2.4	·	·	·	10	6
CCCn1ncc(C(=O)NC2CCCN(Cc3ccc(Cl)cc3)C2)c1C (centres undefined)	3	1.5	-2	-30	7876	1	2
CCn1c(-c2ccccc2)csc1=Nc1ccc(S(=O)(=O)O)cc1	0	3.8	-4	-6	2311	12	-3
COc1ccc(S(=O)(=O)CCC(=O)Nc2c(C)n(C)n(-c3ccccc3)c2=O)cc1	3	1.8	·	5	2159	·	·
O=C(CN(Cc1ccco1)C(=O)Cn1nnc(-c2ccc(F)cc2)n1)NC1CCCC1	16	6.4	-6	·	10731	9	1
Cc1cc(C)c2c(N)c(C(=O)N3CCc4ccccc4C3)sc2n1	0	3.7	-1	-21	4330	13	10
c1ccc2oc(NC3=NCN(C4CCCCC4)CN3)nc2c1	0	7.1	-8	·	·	14	11
CCc1ccccc1NC(=O)CCS(=O)(=O)c1ccc(Br)cc1	-8	7.7	7	-17	4417	10	6
COc1ccc(CN2C(=O)c3cccnc3C2=O)cc1S(=O)(=O)N(C)c1ccc(C)cc1	5	2.6	2	0	5048	2	-7
Nc1nc(NCC2CCCO2)nc(Nc2ccccc2F)c1[N+](=O)[O-] (centres undefined)	-9	6.8	-9	8	4170	-3	3
